High-throughput results: PubChem, Broad Institute
MITF inhib – blocks MITF activity. 37,000 tested, 0.28% active. inhibition, % (test concentration not listed). TRPM1 promoter luciferase, luminescence, 24 h. AID 2240;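 active means most replicates at 85% or more, or half of them and the mean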;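 further: human melanocyte line stably carrying TRPM1 promoter luciferase reporter; 0% = vehicle wells and 100% = a positive control; the first replicate is given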
YB-1 expression – YB-1 expression inhibition; 30,000 tested, 0.37% active; U2OS, qRT-PCR YB-1 vs CDIP delta delta Cp, 16 h; hits give high values; zero = DMSO, each unit about twofold; delta delta Cp (YB-1 minus CDIP) (concentration not given with the values);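 active means delta delta Cp rounded down to an integer at or above 3, about 3 SD of DMSO wells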;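 further: higher means less YB-1 transcript or more CDIP transcript relative to DMSO; stock transfer was 100 nL into about 100 µL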
PD-1 reversal – reversal of PD-1 mediated T-cell inhibition. primary human CD4 T cells, PD-L1 beads, CellTiter-Glo 96 h. activation, % (no concentration beside the values). 29,000 tested, under 10 active;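 active means replicate mean of 50% or more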;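 further: 0% = median vehicle wells and 100% = positive control; 100 nL library stock added to about 50 µL; numbers are from one replicate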
Hedgehog inh – Sonic Hedgehog pathway inhibition; inhibition, % (no concentration beside the values); 22,000 tested, 2.1% active; AID 2313; Shh-LIGHT2 Gli-luciferase reporter, 30 h;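 active means replicate mean of 65% or more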;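 further: pathway switched on by Shh-conditioned medium diluted 1 in 25 in low serum; 100 nL library stock added to about 40 µL; 0% = median of neutral wells and 100% = positive control level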
Starred values were filed as active, the others as inactive. Only part of the results is shown (hit frequency here may not be typical).

Results for COC(=O)c1cc(CO)cc(O)c1C(=O)c1c(O)cccc1O ?
YB-1 expression: 0.65; Hedgehog inh: 21

What do the screens show for `C[C@@H]1CN([C@@H](C)CO)C(=O)c2cccc(NS(=O)(=O)c3cccs3)c2O[C@@H]1CN(C)S(=O)(=O)c1ccccc1`?
MITF inhib: -7; YB-1 expression: 0.018; PD-1 reversal: -2.9; Hedgehog inh: 25

Results for Cc1cc(C(=O)Nc2cccc3c2O[C@@H](CN(C)C)[C@H](C)CN([C@H](C)CO)C3=O)n(C)n1 ?
MITF inhib: -1; YB-1 expression: 0.072; PD-1 reversal: 1.6; Hedgehog inh: 20

How did COc1ccc(CN(C)C[C@H]2Oc3ccc(NC(=O)Nc4cccc5ccccc45)cc3C(=O)N([C@H](C)CO)C[C@H]2C)cc1 do in these assays?
MITF inhib: -7; YB-1 expression: 0.0091; Hedgehog inh: 5

What do the screens show for `Cc1nn(CC(=O)Nc2ccc(C#N)cc2)c(C)c1[N+](=O)[O-]`?
MITF inhib: -3; PD-1 reversal: -0.1

How did COc1cc(CCC(C)NC(=O)c2ccco2)ccc1OC(=O)c1ccco1 (stereo unspecified) do in these assays?
MITF inhib: -14; YB-1 expression: 0.3; PD-1 reversal: -3.8; Hedgehog inh: 41

Results for Nc1ccc(Br)cc1C(O)c1ccccc1 (stereo unspecified) ?
MITF inhib: -4; YB-1 expression: -0.29; PD-1 reversal: -0.2

What do the screens show for `Cc1noc(C)c1S(=O)(=O)Nc1ccc2c(c1)C(=O)N([C@@H](C)CO)C[C@H](C)[C@@H](CN(C)Cc1ccc3c(c1)OCO3)O2`?
MITF inhib: 9; YB-1 expression: -0.023; PD-1 reversal: -1.8; Hedgehog inh: 37

What do the screens show for `CCOC(=O)c1nonc1N`?
MITF inhib: -12; YB-1 expression: -0.019; PD-1 reversal: -0.2; Hedgehog inh: -7

What do the screens show for `C[C@@H]1CN([C@H](C)CO)C(=O)c2cc(NC(=O)Cc3cn(C)c4ccccc34)ccc2O[C@@H]1CN(C)Cc1ccc(C(=O)O)cc1`?
MITF inhib: 6; YB-1 expression: -0.11; PD-1 reversal: 1.0; Hedgehog inh: 0

How did CC(C)NC(=O)Nc1cccc2c1O[C@H](CN(C)C(=O)Nc1cccc3ccccc13)[C@H](C)CN([C@@H](C)CO)C2=O do in these assays?
MITF inhib: 4; YB-1 expression: 0.13; PD-1 reversal: -0.8; Hedgehog inh: 35

How did CCC(=O)Nc1ncc2c(n1)CC(C)(C)CC2=O do in these assays?
MITF inhib: 4; YB-1 expression: -0.12; PD-1 reversal: 5.7; Hedgehog inh: -24

Results for CC(=O)Oc1ccc(O)cc1 ?
MITF inhib: 4; YB-1 expression: 0.49; PD-1 reversal: -19; Hedgehog inh: 53

Results for C[C@@H]1CN([C@H](C)CO)C(=O)Cc2cc(NC(=O)C3CCCCC3)ccc2O[C@@H]1CN(C)Cc1ccncc1 ?
MITF inhib: -9; YB-1 expression: -0.34; Hedgehog inh: -23

Results for O=c1c(C=Nc2ccccc2)c(Nc2ccccc2)[nH]n1-c1ccccc1 ?
MITF inhib: 25; YB-1 expression: -0.37; PD-1 reversal: 4.5; Hedgehog inh: 17

What do the screens show for `CCOC(=O)c1c(C)n(C)c2ccc(O)c(S(=O)(=O)c3ccc(C)cc3)c12`?
MITF inhib: 6; YB-1 expression: -0.035; PD-1 reversal: 1.6; Hedgehog inh: 6

What do the screens show for `C[C@H]1CN([C@@H](C)CO)C(=O)Cc2cc(NC(=O)Nc3ccc(C(F)(F)F)cc3)ccc2O[C@@H]1CN(C)S(=O)(=O)c1cn(C)cn1`?
MITF inhib: -8; YB-1 expression: 0.0068; PD-1 reversal: 0.6; Hedgehog inh: -7

How did C[C@H]1CN([C@@H](C)CO)C(=O)c2cccc(NC(=O)CCCCCC(=O)Nc3ccccc3N)c2O[C@@H]1CN(C)C(=O)Nc1cccc2ccccc12 do in these assays?
MITF inhib: 6; YB-1 expression: 0.23; PD-1 reversal: -0.7

Results for O=c1n(Cc2ccc(F)cc2)nc2n1-c1ccccc1SC2 ?
MITF inhib: -20; YB-1 expression: -0.29; PD-1 reversal: -1.6; Hedgehog inh: -42

What do the screens show for `C[C@H](CO)N1C[C@H](C)[C@H](CN(C)Cc2ccc(C(F)(F)F)cc2)Oc2c(NS(C)(=O)=O)cccc2C1=O`?
MITF inhib: -5; YB-1 expression: 0.32; PD-1 reversal: -0.8; Hedgehog inh: 5

What do the screens show for `Cc1noc(C)c1S(=O)(=O)Nc1ccc2c(c1)C(=O)N([C@H](C)CO)C[C@H](C)[C@H](CN(C)CC1CCCCC1)O2`?
MITF inhib: -1; YB-1 expression: -0.13

How did C[C@H](CO)N1C[C@H](C)[C@H](CN(C)C(=O)Nc2ccc3c(c2)OCO3)Oc2ccc(NC(=O)Nc3ccc4c(c3)OCO4)cc2CC1=O do in these assays?
MITF inhib: -6; YB-1 expression: 0.45; PD-1 reversal: -0.4; Hedgehog inh: 6

Results for C[C@@H]1CN([C@H](C)CO)C(=O)Cc2cc(NS(=O)(=O)c3ccc(F)cc3)ccc2O[C@@H]1CN(C)S(C)(=O)=O ?
MITF inhib: -2; YB-1 expression: -0.28; PD-1 reversal: 1.2; Hedgehog inh: -4

How did CCCCn1c(=O)c2c(ncn2CC(C)=O)n(CCCC)c1=O do in these assays?
MITF inhib: 1; YB-1 expression: -0.27; PD-1 reversal: -1.8; Hedgehog inh: 36

How did COc1ccc(S(=O)(=O)N(C)C[C@H]2Oc3ccc(NC(=O)NC4CCCCC4)cc3CC(=O)N([C@@H](C)CO)C[C@H]2C)cc1 do in these assays?
MITF inhib: -8; YB-1 expression: 0.12; Hedgehog inh: 10

How did O=C(O)c1cccc(S(=O)(=O)NCc2ccco2)c1 do in these assays?
MITF inhib: -24; PD-1 reversal: 1.3

How did C[C@@H]1CN([C@H](C)CO)C(=O)Cc2cc(NC(=O)C3CCCCC3)ccc2O[C@H]1CN(C)C(=O)Nc1cccc2ccccc12 do in these assays?
MITF inhib: -37; YB-1 expression: 0.33; Hedgehog inh: -19

Results for COc1c(O[C@@H]2O[C@H](C(=O)O)[C@@H](O)[C@H](O)[C@H]2O)cc(O)c2c(=O)cc(-c3ccccc3)oc12 ?
MITF inhib: -55; YB-1 expression: 0.15; PD-1 reversal: 1.5; Hedgehog inh: -4

Results for Cc1noc(C)c1NC(=O)N(C)C[C@@H]1Oc2ccc(NS(=O)(=O)c3ccc(Cl)cc3)cc2C(=O)N([C@@H](C)CO)C[C@H]1C ?
MITF inhib: -11; YB-1 expression: -0.03; PD-1 reversal: 0.5; Hedgehog inh: -2

Results for C[C@H](CO)N1C[C@H](C)[C@H](CN(C)Cc2ccncc2)Oc2c(NC(=O)C3CC3)cccc2C1=O ?
MITF inhib: 0; YB-1 expression: -0.37; PD-1 reversal: 0.3; Hedgehog inh: 39

How did C[C@H]1CN([C@@H](C)CO)C(=O)c2cccc(NC(=O)Nc3ccc4c(c3)OCO4)c2O[C@H]1CN(C)Cc1ccc(C(F)(F)F)cc1 do in these assays?
MITF inhib: -3; YB-1 expression: -0.11; PD-1 reversal: -0.2; Hedgehog inh: -54

What do the screens show for `CS(=O)(=O)N(CC(=O)Nc1cccc(Br)c1)c1ccccc1F`?
MITF inhib: 0; PD-1 reversal: -0.5

Results for CCN(CC(=O)Nc1cccc([N+](=O)[O-])c1)S(=O)(=O)c1ccc(Br)cc1 ?
MITF inhib: 4; PD-1 reversal: 0.8

Results for O=C(O)c1ccc2c3c1cccc3c(=O)n1c3ccccc3nc21 ?
MITF inhib: -10; YB-1 expression: 0.16; PD-1 reversal: 1.2; Hedgehog inh: 50

How did C[C@H]1CN([C@@H](C)CO)C(=O)c2cccc(NS(=O)(=O)c3cccs3)c2O[C@@H]1CN(C)C(=O)Nc1cccc2ccccc12 do in these assays?
MITF inhib: 5; YB-1 expression: -0.44; PD-1 reversal: -0.8; Hedgehog inh: 36

What do the screens show for `COc1ccc(NC(=O)CS(=O)(=O)Cc2ccccc2)c([N+](=O)[O-])c1`?
MITF inhib: -44; PD-1 reversal: -0.5

What do the screens show for `C[C@H](CO)N1C[C@H](C)[C@H](CN(C)C(=O)Nc2ccc(F)cc2)Oc2ccc(NC(=O)CCCCCC(=O)Nc3ccccc3N)cc2CC1=O`?
MITF inhib: -24; YB-1 expression: -0.26; PD-1 reversal: -1.2

What do the screens show for `O=S(=O)(Nc1ncccn1)c1ccc(NC(=S)Nc2ccc3c(c2)CCC3)cc1`?
MITF inhib: -8; PD-1 reversal: 0.7

What do the screens show for `COc1ccc(S(=O)(=O)Nc2ccc3c(c2)CC(=O)N([C@@H](C)CO)C[C@@H](C)[C@@H](CN(C)CC2CCCCC2)O3)cc1`?
MITF inhib: -2; YB-1 expression: 0.38; PD-1 reversal: -0.1; Hedgehog inh: 20

Results for C[C@@H]1CCCCO[C@@H](CN(C)C(=O)c2ccccc2)[C@@H](C)CN([C@H](C)CO)C(=O)c2cc(NS(=O)(=O)c3ccccc3)ccc2O1 ?
MITF inhib: -11; YB-1 expression: 0.21; Hedgehog inh: -1

What do the screens show for `Cc1noc(C)c1NC(=O)Nc1cccc2c1O[C@@H](CN(C)C)[C@H](C)CN([C@@H](C)CO)C2=O`?
MITF inhib: 0; YB-1 expression: -0.24; PD-1 reversal: 0.6; Hedgehog inh: -13

What do the screens show for `C[C@@H]1CN([C@@H](C)CO)C(=O)c2cc(NC(=O)CCCCCC(=O)Nc3ccccc3N)ccc2O[C@H]1CN(C)S(C)(=O)=O`?
MITF inhib: 6; YB-1 expression: 0.09; PD-1 reversal: 1.9

What do the screens show for `O=C1NCc2c1c1c3ccccc3[nH]c1c1[nH]c3ccccc3c21`?
MITF inhib: 30; YB-1 expression: 0.31; PD-1 reversal: -4.1; Hedgehog inh: 21

How did C[C@@H]1CN([C@@H](C)CO)C(=O)c2cc(NC(=O)NC3CCCCC3)ccc2O[C@H]1CN(C)Cc1ccc2c(c1)OCO2 do in these assays?
MITF inhib: 3; YB-1 expression: -0.16; PD-1 reversal: 1.9

What do the screens show for `CN1C(=O)C(CC(=O)Nc2ccc(Cl)cc2)N(Cc2ccco2)C1=S` (stereo unspecified)?
MITF inhib: 15; PD-1 reversal: -12

What do the screens show for `C[C@H](CO)N1C[C@H](C)[C@@H](CN(C)S(=O)(=O)c2cccs2)Oc2ccc(NC(=O)CCC(F)(F)F)cc2C1=O`?
MITF inhib: -5; YB-1 expression: -0.44; PD-1 reversal: 0.2; Hedgehog inh: -40

Results for Cc1nc(-c2cc(C#N)c(SCCNC(=O)c3ccc(Cl)cc3Cl)nc2C)cs1 ?
MITF inhib: 7; YB-1 expression: -0.11; PD-1 reversal: 0.9; Hedgehog inh: 30

Results for Cc1noc(C)c1S(=O)(=O)N(C)C[C@H]1Oc2ccc(NS(=O)(=O)c3cccs3)cc2CC(=O)N([C@H](C)CO)C[C@H]1C ?
MITF inhib: 6; YB-1 expression: 0.35; PD-1 reversal: -1.0; Hedgehog inh: -16

What do the screens show for `Cc1noc(C)c1NC(=O)Nc1ccc2c(c1)CC(=O)N([C@H](C)CO)C[C@H](C)[C@H](CN(C)Cc1ccc(Cl)c(Cl)c1)O2`?
MITF inhib: -15; YB-1 expression: -0.17; Hedgehog inh: 18

How did O=c1c2ccccc2cnn1Cc1n[nH]c(=S)n1-c1ccc2c(c1)OCCO2 do in these assays?
MITF inhib: -4; PD-1 reversal: 4.8

How did CNC[C@H]1Oc2c(NS(C)(=O)=O)cccc2C(=O)N([C@@H](C)CO)C[C@@H]1C do in these assays?
MITF inhib: -4; YB-1 expression: -0.095; PD-1 reversal: 2.2; Hedgehog inh: -55

What do the screens show for `Cc1cc(I)ccc1NC(=O)Cn1ccc([N+](=O)[O-])n1`?
MITF inhib: -39; PD-1 reversal: -0.5

Results for C[C@H]1CN([C@@H](C)CO)C(=O)c2cccc(NC(=O)Nc3ccc(F)cc3)c2O[C@@H]1CN(C)CC1CCCCC1 ?
MITF inhib: 0; YB-1 expression: -0.47; PD-1 reversal: -3.6; Hedgehog inh: 35

How did COc1ccc(NC(=O)N(C)C[C@@H]2Oc3ccc(NC(=O)CCN4CCOCC4)cc3C(=O)N([C@H](C)CO)C[C@@H]2C)cc1 do in these assays?
MITF inhib: 10; YB-1 expression: -0.28

Results for COc1ccc(Cl)cc1NC(=O)CSc1nnnn1-c1ccc(C(=O)O)cc1 ?
MITF inhib: -11; PD-1 reversal: 0.1

Results for O=C(NCCc1ccccc1)C1CC(=O)N(CCc2ccccc2)C(=Nc2ccc(F)cc2)S1 (stereo unspecified) ?
MITF inhib: 12; YB-1 expression: 0.02; PD-1 reversal: 0.9; Hedgehog inh: 30
